High-throughput results: PubChem BioAssay, several laboratories
Sa ugtP lethal = growth inhibition of ugtP-null S. aureus, primary screen, RN4220 ugtP deletion, OD600; 16 h; some inactives read as strong as hits; growth inhibition, % (concentration not given with the values); hit rate 0.54% among 330,000;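 active = z-score under -3 and OD600 up to 0.15 on both plates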;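 note: plate controls were untreated wells for no effect and antibiotic for full effect; wells of about 80 µL received 100 nL stock; the first replicate is given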
BJeLR viability = MLPCN primary cell-based screen for lethality selective to Ras in HRASV12 cells; AID 1554, 2009; inhibition, % (test concentration not listed); hit rate 0.17% among 300,000; BJeLR (HRASV12) viability, CellTiter-Glo ATP luminescence, 48 h; reference of the scale not given here;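 active = replicate mean above 50%; inconclusive = above 50% but judged a plate artefact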;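 note: 50 nL library stock added to about 25 µL; numbers are from one replicate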
RN4220 kill = growth inhibition of S. aureus RN4220, primary screen, OD600; inhibition, % (test concentration not listed); hit rate 0.33% among 330,000; 16 h; AID 1259311, 2017;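 active = z-score of -3 or lower and OD600 up to 0.18 on both plates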;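 note: plate controls were untreated cells for no effect and reference antibiotic for full effect; stock transfer was 100 nL into about 80 µL; one replicate is shown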
Autofluor counter = compound fluorescence in toxin protease inhibitor counterscreen; hit rate 3.1% among 360,000; fluorescence intensity (concentration not given with the values); AID 624483; compound autofluorescence counterscreen, microsphere flow cytometry; active compounds read high;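 active = at least 3 SD above the mean of all compounds, about 16000 in these data; inconclusive = too few beads counted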;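 note: 100 nL of 1 mM stock went into each well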
PrP 5UTR inh = inhibition of PrP 5' UTR reporter expression. cell-based PrP 5' UTR mRNA reporter, plate reader. inhibition, % (test concentration not listed). hit rate 0.35% among 340,000. AID 488862, 2010;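 active = every replicate at 50% or more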;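 note: 0 = median of the neutral control wells; tested in H4 reporter cells; numbers are from one replicate; inactives centre near -14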
Mtb hypoxia inh = PubChem AID 1159583; M. tuberculosis hypoxia-regulated fluorescent reporter, fluorescence; fluorescence inhibition, % (no concentration beside the values); hit rate 0.1% among 300,000;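 active = 35 to 45% if threefold the growth effect, above 45% if 1.5-fold the growth effect; inactive = the rest, general growth blockers included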;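 note: wells of about 50 µL received 100 nL stock; 0% = vehicle wells and 100% = reference inhibitor wells; whole bacteria with a GFP reporter of the hypoxia response; strong numbers were not always called active; many hits fall short of the cut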
Mtb hypoxia inh growth = second read-out of Mtb hypoxia inh, no call of its own (marks repeat the call); growth inhibition, %; measured here: M. tuberculosis growth (absorbance);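 0% = vehicle and 100% = reference antibiotic; read after six days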
An asterisk follows results filed as active; ? = inconclusive; . = not tested or not shown.

The line under a structure holds: Sa ugtP lethal | BJeLR viability | RN4220 kill | Autofluor counter | PrP 5UTR inh | Mtb hypoxia inh | Mtb hypoxia inh growth
- Cc1ccc(S(=O)(=O)NC(C)C(=O)Nc2cccc([N+](=O)[O-])c2)cc1 (stereo unspecified)
→ 12 | . | -2.6 | 3255 | -11 | 11 | 16
- O=C(Nc1ccncc1)c1ccccc1[N+](=O)[O-]
→ 12 | 7 | 3.3 | 4119 | -17 | 2 | 11
- O=C(CSc1nc(C2CC2)nc2ccccc12)Nc1cccc(O)c1
→ -4 | 5 | -1.3 | 5854 | 11 | -6 | 5
- N#Cc1ccccc1Sc1ccccc1C(=O)OCC(=O)NC1CCS(=O)(=O)C1 (stereo unspecified)
→ 3 | -10 | 6.0 | 2409 | -3 | -6 | -9
- COC(=O)C1=C(C(=O)OC)C2N(Cc3ccccc3)c3ccccc3[C@@]23CC(C(=O)OC)N(C(=O)C2CCC2)C3=N1 (stereo partly specified)
→ 8 | . | -0.7 | . | . | 9 | 7
- CN(CC(=O)Nc1cccc(F)c1)C(=O)c1cccnc1Sc1ccccc1Cl
→ -7 | 10 | 5.4 | ? | 2 | 1 | 5
- O=C1NC(Cc2ccccc2)C(=O)N2C1CC1c3ccccc3N(OOSc3ccccc3)C12 (stereo unspecified)
→ -19 | . | 6.6 | . | . | -2 | 4
- Cc1nc2cc(-c3ccccc3)nn2c(C)c1CCC(=O)N1CCC2(CC1)OCCO2
→ 8 | -4 | 1.5 | 16588* | 29 | 3 | 7
- CCn1ncc(C2=NOC(C(=O)Nc3cccc(C(C)=O)c3)C2)c1C (stereo unspecified)
→ 11 | 6 | 5.8 | 15772 | -22 | 4 | 5
- CCN(CC(=O)Nc1sc2c(c1C#N)CCCC2)Cc1nc2ccccc2c(=O)[nH]1
→ 9 | 6 | 8.8 | 4392 | 8 | -15 | 2
- Cc1ccc(NC(=O)CN(C)S(=O)(=O)c2cccs2)c(Br)c1
→ 1 | -4 | -0.5 | 6383 | -1 | 7 | 14
- COc1ccc(CC(=O)NCc2nnc(SCC(=O)Nc3nccs3)n2C)cc1
→ 5 | . | -2.7 | 4714 | 1 | 18 | 5
- Cc1ccc(S(=O)(=O)c2c[nH]c3ccc(C)cc3c2=O)cc1
→ -7 | 3 | -3.3 | 4497 | -41 | -5 | -6
- Cc1ccc(-c2csc(NC(=O)COC(=O)c3cccc(S(=O)(=O)N4CCOCC4)c3)n2)cc1
→ 14 | 6 | 0.9 | . | . | 4 | -4
- Cc1ccc2c(c1)sc1nc(=O)n(-c3ccccc3)c(=O)n12
→ -3 | 13 | 3.2 | 4313 | -89 | -3 | 8
- O=C(CCCCn1c(=O)c2ccccc2n(CC(=O)NC2CCCC2)c1=O)NC1CCCC1
→ 9 | -7 | 3.0 | 4843 | -8 | . | .
- CC(C)CN1C(=S)SC(C)(C)C1n1oc(=O)n(-c2ccc(Cl)cc2)c1=O (stereo unspecified)
→ -55 | 10 | -8.9 | 7564 | -20 | -1 | 2
- O=C(NC(=S)Nc1cccc([N+](=O)[O-])c1)c1ccco1
→ -2 | -8 | 7.4 | 2188 | -25 | 3 | 5
- CN1CCN(C(=S)Nc2ccc(S(N)(=O)=O)cc2)CC1
→ 3 | 6 | 6.2 | 4290 | 17 | 5 | -1
- CCS(=O)(=O)NCCc1csc(-c2ccccc2)n1
→ -14 | 9 | -10 | 2362 | -64 | 2 | 14
- Cc1ccc2c(c1)Cc1nc3ccccc3nc1-2
→ 2 | 26 | 12 | 4003 | 24 | 6 | 5
- Cc1cccc2c(C(=O)N3CCN(C(=O)c4ccco4)CC3)cc(-c3cccc(Br)c3)nc12
→ 18 | -6 | -3.8 | 3405 | -18 | 9 | 10
- CCC1Oc2ccc(C)cc2N(CC(=O)N(Cc2ccc(C)o2)C2CCCC2)C1=O (stereo unspecified)
→ 4 | -23 | 0.7 | 4066 | -17 | 0 | -1
- O=[N+]([O-])c1cc(C(F)(F)F)ccc1-n1nnc2ccccc21
→ 3 | -1 | 9.6 | 7154 | -8 | 3 | 12
- COc1ccc(CN(Cc2ccc(OC)cc2)S(=O)(=O)c2ccc(-n3cnnn3)c(C)c2)cc1
→ 0 | 4 | -2.3 | 4280 | -19 | 9 | 3
- C[C@@]12C(=O)N(c3ccc(F)cc3)C(=O)N1C1c3ccccc3OCC1C2c1ccccc1 (stereo partly specified)
→ -18 | . | 5.1 | . | . | 10 | 9
- Nc1c(N(CCC2=CCCCC2)C(=O)COc2ccc(F)cc2)c(=O)[nH]c(=O)n1Cc1ccccc1
→ 9 | . | 22 | 5731 | -6 | 5 | 9
- COc1cccc(N(CC(=O)NCCSCc2ccco2)S(=O)(=O)c2ccccc2)c1
→ -3 | -4 | -0.5 | 3086 | -10 | 9 | 3
- O=C(NCc1cccnc1)c1ccccc1-c1nc(-c2ccccc2)no1
→ 4 | 3 | 1.1 | 2259 | -12 | -7 | -8
- O=C(c1ccc(N2C(=O)c3ccccc3C2=O)cc1)N1CCCCC1
→ 15 | -4 | 4.2 | 3767 | -62 | 4 | 5

(more compounds)
Structure	Sa ugtP lethal	BJeLR viability	RN4220 kill	Autofluor counter	PrP 5UTR inh	Mtb hypoxia inh	Mtb hypoxia inh growth
COC(=O)CN1C(=O)[C@H]2[C@@H](c3ccc(C)o3)N3C(=O)CN(CC4CC4)C(=O)[C@@]3(Cc3ccccc3)[C@H]2C1=O	.	4	.	2888	-6	.	.
CCCOC(=O)c1ccc(N2C(=O)c3ccccc3C2=O)cc1	2	-15	1.4	2040	-13	5	4
CC(Cc1ccccc1)=NNC(=O)CNC(=O)c1ccc(Cl)cc1	2	.	1.9	.	.	3	4
CSc1ccc(/C=C(\NC(=O)c2ccco2)C(=O)N2CCCCC2)cc1	-1	-1	3.7	3986	-2	0	-9
Cc1ccc2nc(-c3ccc(N4C(=N)SC5CS(=O)(=O)CC54)cc3)sc2c1 (stereo unspecified)	-9	-2	-2.7	2519	-45	-6	14
COC(C(=O)Nc1ccc(C(C)=O)cc1)c1ccccc1 (stereo unspecified)	5	-4	2.1	2681	-16	3	13
CNC(=O)C1CCC(=O)N1Cc1ccc(C)cc1 (stereo unspecified)	-1	-2	1.7	3005	-4	6	6
O=C(CCNS(=O)(=O)c1ccc2[nH]c(=O)oc2c1)NCc1ccccc1	4	5	1.0	4485	-11	0	-6

An excerpt of these results, as labelled records:
CC(Cc1ccccc1)=NNC(=O)CNC(=O)c1ccc(Cl)cc1
  Sa ugtP lethal = 2
  BJeLR viability = .
  RN4220 kill = 1.9
  Autofluor counter = .
  PrP 5UTR inh = .
  Mtb hypoxia inh = 3
  Mtb hypoxia inh growth = 4

CSc1ccc(/C=C(\NC(=O)c2ccco2)C(=O)N2CCCCC2)cc1
  Sa ugtP lethal = -1
  BJeLR viability = -1
  RN4220 kill = 3.7
  Autofluor counter = 3986
  PrP 5UTR inh = -2
  Mtb hypoxia inh = 0
  Mtb hypoxia inh growth = -9

Cc1ccc2nc(-c3ccc(N4C(=N)SC5CS(=O)(=O)CC54)cc3)sc2c1 (stereo unspecified)
  Sa ugtP lethal = -9
  BJeLR viability = -2
  RN4220 kill = -2.7
  Autofluor counter = 2519
  PrP 5UTR inh = -45
  Mtb hypoxia inh = -6
  Mtb hypoxia inh growth = 14

COC(C(=O)Nc1ccc(C(C)=O)cc1)c1ccccc1 (stereo unspecified)
  Sa ugtP lethal = 5
  BJeLR viability = -4
  RN4220 kill = 2.1
  Autofluor counter = 2681
  PrP 5UTR inh = -16
  Mtb hypoxia inh = 3
  Mtb hypoxia inh growth = 13

(further entries)
Structure	Sa ugtP lethal	BJeLR viability	RN4220 kill	Autofluor counter	PrP 5UTR inh	Mtb hypoxia inh	Mtb hypoxia inh growth
COc1ccc(NC(=O)c2cc3c(Cl)nc4ccccc4c3s2)c(OC)c1	.	-17	.	2964	0	.	.
COC(=O)CSc1nc2c(c(-c3ccc(O)cc3)c1C#N)CCCC2	15	6	-0.5	3827	-20	-5	2
CCOc1ccccc1NC(=O)N1C2CCCC1CC(NC(=O)C1CC1)C2 (stereo unspecified)	-6	-16	-0.8	4391	-11	-4	7
CO/N=C(/CS(=O)Cc1ccc(Cl)cc1)c1ccc(Cl)cc1 (stereo unspecified)	.	5	.	9820	-14	.	.
Cc1ccccc1SCC(=O)NNC(=O)c1ccncc1	3	.	2.3	8610	-5	1	0
O=C1COc2ccccc2CN1	3	-3	-0.5	5468	-7	.	.
O=C(O)c1cccc2c(C=NNc3ccccn3)c[nH]c12	4	.	6.7	.	.	-5	1
Cc1cc(-c2nnc(SCC(=O)NC3CCCC3)o2)no1	-1	2	6.9	9217	-7	-21	-43
CN(C)CCCN1C(=O)C2CCc3[nH]c4ccccc4c3C2C1=O (stereo unspecified)	13	3	4.7	3133	-26	2	-9
CC(=O)c1ccccc1OC(=O)COc1ccc([N+](=O)[O-])cc1	4	-4	1.0	3575	-9	-2	-6
COc1ccc(NS(=O)(=O)NC(=O)c2c[nH]c3ccccc23)cc1	3	-9	8.7	5424	-11	4	-7
O=c1c(-c2ccccc2)coc2c(CN3CCOCC3)c(O)ccc12	-2	0	-8.7	3169	-33	17	3
CC1CCc2nc(NC(=O)CCSc3ccccc3)sc2C1 (stereo unspecified)	7	4	7.7	5282	-22	11	7
CC(=O)Nc1c(O)nc(SCC(=O)N2CCCCC2)[nH]c1=O	10	.	3.0	4852	-7	10	10
Cc1nnc(NC(=O)C2CC(=O)N(C(C)c3ccccc3)C2)s1 (stereo unspecified)	4	-1	3.4	?	-23	8	2
Cc1cccc(C)c1NC1=C(Cl)C(=O)OC1OC(=O)c1ccccc1 (stereo unspecified)	-7	2	5.7	2216	-4	6	6
COc1ccc(S(=O)(=O)N(C)C[C@H]2Oc3ccc(NC(=O)Cc4cn(C)c5ccccc45)cc3C(=O)N([C@@H](C)CO)C[C@@H]2C)cc1	-15	.	-12	3712	-2	-5	16
Cn1nnnc1Sc1ncnc2scc(-c3cccc(F)c3)c12	-1	.	6.7	3806	-3	4	9
COc1ccc(Br)cc1/C=C/C(=O)NC(=S)Nc1ccc(Cl)c(C(=O)O)c1	6	-4	5.7	5062	-14	12	4
Cc1cc2ncn(C(=O)N3CCOCC3)c2cc1C	0	2	3.0	4530	-18	5	1
OC(c1ccc2ccccc2n1)c1c(Cl)cccc1Cl (stereo unspecified)	6	.	-0.3	2767	-12	6	3
S=C(Nc1ccc(Cl)cc1)Nc1ccc2c(c1)OCCO2	-2	.	-0.5	5163	-31	19	4
CCOc1cc(C=NNC(=S)Nc2ccccc2C(F)(F)F)ccc1OCC(=O)N1CCOCC1	3	.	6.7	.	.	2	3
COc1ccccc1CNC(=S)NCc1ccc(Cl)cc1	-3	-2	-1.2	4148	-8	0	2
CC(=O)Nc1ccc(NC(=O)COc2ccc(S(=O)(=O)N3CCCC3)cc2C)cc1	0	16	3.2	3673	-26	7	5
CCN(CC)S(=O)(=O)c1cc(C(=O)Nc2ccncc2)ccc1Cl	4	2	3.1	9675	-1	3	6
Cc1c(Cl)cccc1NC(=S)NCCc1ccc(Cl)cc1	-29	-4	-5.3	3100	-4	-4	-8
Cc1ccc(C)c(N2C(=O)CC(Cc3ccc(Cl)cc3)C2=O)c1 (stereo unspecified)	10	17	1.0	.	-20	6	-7
CCCCCCOc1ccc(C(=O)O)cc1	-1	-5	8.3	4376	-10	-6	1
COc1ccc(C[C@@H]2CN3C(=NC[C@@H]3C)N2CCNC(=O)c2ccc(C)c(Br)c2)cc1	.	-3	.	3920	-10	.	.
C=CCN(CC=C)C(=S)NC(=O)/C=C/c1ccc(C)cc1	-3	-12	4.8	2403	-21	4	-1
CCC(=O)OC1(C)C(=O)C2=COC(c3ccc(OC)cc3)=CC2=C(Br)C1=O (stereo unspecified)	.	-3	.	3617	-25	.	.
CCOC(=O)C1C2COc3ccc(OC)cc3C2N2C(=O)CN(Cc3ccc(F)cc3)C(=O)[C@@]12C (stereo partly specified)	-6	.	0.4	.	.	8	10
CN(C)/C=N/c1c(C#N)cnn1-c1ncnc2sc(-c3ccccc3)cc12	.	3	.	2810	-4	.	.
C=CCc1cccc(CNc2ccc(S(=O)(=O)Nc3nccnc3OC)cc2)c1O	5	0	4.5	2873	-20	5	-9
